Screens (PubChem BioAssay)
Anaer choline gr: choline-fed anaerobic bacterial growth inhibition | Gram-negative bacterium anaerobic choline minimal medium, absorbance growth; hits give low values; many inactives read as strong as hits in the columns shown | calls only | 55,000 tested, 0.2% active;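 active = growth z-score on choline under -2 at 7 or 20 h with little or no fall on glycerol, limits in tiers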;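 note: stock transfer was 300 nL into about 50 µL; the organism is E. coli; final concentration not given here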
Anaer choline gr early: further read-out of Anaer choline gr, marked with its call; z-score; measured here: choline growth z-score, timepoint 1;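 score of optical density at 7 h as mean of two plates; lower means less growth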
* hit, by the source's call; i = inactive; & = joins results of further samples. The list is partial; rates above refer to the full screens.

SMILES	Anaer choline gr	Anaer choline gr early
O=C(c1cccc(Cl)c1)N1CCCN(Cc2noc(-c3ccccc3)n2)CC1	i	0.08
Cc1nn2c(N(C)C)cc(C(C)(C)C)nc2c1-c1ccc(F)cc1	i	-0.35
O=C(O)c1ccc(N2CCOCC2)c(NS(=O)(=O)c2ccc(Br)cc2)c1	i	0.92
Cc1nnc2ccc(S(=O)(=O)Nc3ccc4c(c3)OCO4)cn12	i	-1.26
COC(=O)C1=C(c2ccccc2)c2cc(Cl)ccc2S(=O)(=O)N1CC(=O)Nc1ccccc1Cl	i	-0.62
O=C(O)c1cc(N2CCN(c3ccccc3F)CC2)ccc1NC(=O)C1CCC1	i	-0.57
Cc1c(C(=O)OCc2ccccc2)c2cc(NS(=O)(=O)N(C)C)ccc2n1S(=O)(=O)N(C)C	i	1.32
CCCn1cc(S(=O)(=O)NCc2ccc(F)cc2F)c2cccnc21	i	0.17
CCOC(=O)C1CCN(C(=O)c2nn(C)c3c2CCc2sccc2-3)CC1	i	-1.33
CC(=O)Nc1ccc(C)cc1-c1nnc(SCc2cccc(Br)c2)[nH]c1=O	i	0.44
Cc1cccc(-n2c(C)cc(CNC(=O)NC3CCCCC3)c2C)c1	i	-1.03
C/C(=C\C(=O)OCCCCCCCCC(=O)O)C[C@@H]1OC[C@H](C[C@@H]2O[C@H]2[C@@H](C)[C@H](C)O)[C@@H](O)[C@H]1O	i	-0.28
O=C(NC1CCCCC1)N1CCc2cc(S(=O)(=O)N3CCCCC3)ccc21	i	-0.16
O=C(Nc1cccc(Cl)c1)c1nc(N2CCOCC2)c2oc3ccccc3c2n1	i	-0.01
Cc1cc2c(cc1C(=O)NC1CCCC1)OCCCO2	i	-0.29
O=C(c1ccc(N2CCN(c3ncccn3)CC2)nn1)N1CCc2ccccc21	i	1.51
O=C(Nc1sc2c(c1C(=O)NCC1CCCO1)CCC2)c1cc(=O)c2ccccc2o1 (stereo not given)	i	0.97
Cc1cc(C)n2c(SCc3cc(=O)n4oc(C)cc4n3)nnc2n1	i	-1.27
Cn1nc(-c2ccc(Cl)cc2)c2cc(C(=O)NCCN3CCCC3)sc21	i	-2.92
O=C(CC1CCN(C(=O)NC2CCCCC2)CC1)NCCCN1CCC(N2CCCCC2)CC1	i	-0.48

As a working copy, some entries already given:
SMILES	Anaer choline gr	Anaer choline gr early
O=C(c1cccc(Cl)c1)N1CCCN(Cc2noc(-c3ccccc3)n2)CC1	i	0.08
Cc1nn2c(N(C)C)cc(C(C)(C)C)nc2c1-c1ccc(F)cc1	i	-0.35
O=C(O)c1ccc(N2CCOCC2)c(NS(=O)(=O)c2ccc(Br)cc2)c1	i	0.92
Cc1nnc2ccc(S(=O)(=O)Nc3ccc4c(c3)OCO4)cn12	i	-1.26
COC(=O)C1=C(c2ccccc2)c2cc(Cl)ccc2S(=O)(=O)N1CC(=O)Nc1ccccc1Cl	i	-0.62
O=C(O)c1cc(N2CCN(c3ccccc3F)CC2)ccc1NC(=O)C1CCC1	i	-0.57
Cc1c(C(=O)OCc2ccccc2)c2cc(NS(=O)(=O)N(C)C)ccc2n1S(=O)(=O)N(C)C	i	1.32
CCCn1cc(S(=O)(=O)NCc2ccc(F)cc2F)c2cccnc21	i	0.17
CCOC(=O)C1CCN(C(=O)c2nn(C)c3c2CCc2sccc2-3)CC1	i	-1.33
CC(=O)Nc1ccc(C)cc1-c1nnc(SCc2cccc(Br)c2)[nH]c1=O	i	0.44
Cc1cccc(-n2c(C)cc(CNC(=O)NC3CCCCC3)c2C)c1	i	-1.03
C/C(=C\C(=O)OCCCCCCCCC(=O)O)C[C@@H]1OC[C@H](C[C@@H]2O[C@H]2[C@@H](C)[C@H](C)O)[C@@H](O)[C@H]1O	i	-0.28
O=C(NC1CCCCC1)N1CCc2cc(S(=O)(=O)N3CCCCC3)ccc21	i	-0.16
O=C(Nc1cccc(Cl)c1)c1nc(N2CCOCC2)c2oc3ccccc3c2n1	i	-0.01
Cc1cc2c(cc1C(=O)NC1CCCC1)OCCCO2	i	-0.29
O=C(c1ccc(N2CCN(c3ncccn3)CC2)nn1)N1CCc2ccccc21	i	1.51
O=C(Nc1sc2c(c1C(=O)NCC1CCCO1)CCC2)c1cc(=O)c2ccccc2o1 (stereo not given)	i	0.97

(continued)
SMILES	Anaer choline gr	Anaer choline gr early
Cc1ccc(CNC(=O)c2ccc(-n3nnc4cccnc43)cc2)cc1	i	-0.06
CCN1CCCC1CNC(=O)c1nc(-c2ccc(S(=O)(=O)N3CCCCC3)cc2)no1 (stereo not given)	i	0.52
O=C(Cn1ccn2nc(-c3ccc4c(c3)OCO4)cc2c1=O)NCCCc1ccccc1	i	1.59
Cc1ccc(NC(=O)Cn2nc3c(Oc4ccccc4C)nc4ccccc4n3c2=O)c(Cl)c1	i	-1.31
COc1ccccc1N1CCN(C(=O)c2cc(-c3ccc(C)cc3)on2)CC1	i	0.06
CC1(C(=O)NC2CCCCC2)Cn2c(cc3ccccc32)C(=O)N1Cc1ccccc1Cl (stereo not given)	i	-0.07
NCCCCN=C(N)N	i	-0.05
CCOc1ccc(-n2nnc3c(N4CCN(C(=O)C5CCCO5)CC4)ncnc32)cc1 (stereo not given)	i	1.38
O=C(NC1CCCc2ccccc21)c1ccc(Oc2ccnc(-c3ccc(F)cc3)n2)cc1 (stereo not given)	i	-1.67
CCOc1cc(C2C3=C(CC(c4ccc(O)c(OC)c4)CC3=O)Nc3onc(C)c32)ccc1O (stereo not given)	i	0.65
CN(C)c1ccc(CNC(=O)c2nnc3ccc(-c4ccccc4)nn23)cc1	i	0.56
CCNC(=O)c1cc(NS(=O)(=O)c2ccc(Br)cc2)ccc1N1CCNCC1	i	-0.53
O=C(Oc1ccccc1F)c1cc(-c2ccc3c(c2)OCCO3)on1	i	0.06
Cc1ccccc1Cn1cc(C(=O)Nc2ccc(S(N)(=O)=O)cc2)ccc1=O	i	-0.14
Cc1ccc(CSc2nccc3c2ccn3CC(=O)NCCN2CCCC2)cc1	i	-5.66
CCCc1ccc(S(=O)(=O)N2CCc3c(c(-c4nnc(SCC)n4CC)nn3C)C2)cc1	i	-1.7
CSc1cccc(N2C=C(C#N)S(=O)(=O)c3ccccc32)c1	i	0.01
CCOc1ccc(-c2[nH]nc3nc(-c4cccc(F)c4)cc(C(=O)O)c23)cc1	i	-0.03
CC(C)CC(=O)Nc1nc(-c2ccccc2)cc(-c2ccccc2)n1	i	-0.48
O=C(Cn1cc(C(=O)c2ccccc2)c(=O)c2ccccc21)Nc1ccccc1	i	0.95
O=S(=O)(c1cn(Cc2noc(-c3cccc4[nH]ccc34)n2)cn1)N1CCCCC1	i	-1.31
O=C1Cc2cc(S(=O)(=O)NCc3cccnc3)cc3c2N1CCC3	i	0.47
OC[C@H]1O[C@@H](n2cnc3cncnc32)[C@H](O)[C@@H]1O	i	0.01
CCN1CCCC1CNC(=O)CCCN1C(=O)CSc2c1c(C)nn2-c1ccccc1 (stereo not given)	i	-0.36
COCC(C)NC(=O)c1cnc2sc3c(n2c1=O)CCCC3 (stereo not given)	i	0.42
COc1ccc(OC)c(Nc2nn3c(=O)c4ccccc4nc3s2)c1	i	-0.02
O=C(NCC1CCCO1)c1ccc2ccnc(N3CCN(c4ccc(Cl)cc4)CC3)c2c1 (stereo not given)	i	0.24
O=C(c1cc(-c2ccc3c(c2)OCO3)on1)N1CCCC1c1ccccc1Cl (stereo not given)	i	0.93
Cc1ccc(-c2nc(CN3CCCC(C(=O)NC4CCCCNC4=O)C3)no2)cc1 (stereo not given)	i	-0.82
COC(=O)c1cnc(N2CCN(c3ccccc3F)CC2)c2ccccc12	i	1.56
O=C(Nc1ccc2c(c1)OCO2)c1cc(-c2cccnc2)on1	i	0.99
CN(C)C(CNC(=O)c1cc(-c2ccc3c(c2)CCCC3)on1)c1ccccc1 (stereo not given)	i	-0.53
COc1cc(S(=O)(=O)NCCc2c(C)[nH]c3c(Cl)cccc23)c(C)cc1C	i	0.89
COC(=O)c1ccccc1NC(=O)c1ccc2c(c1)CCN2S(=O)(=O)c1ccc(Cl)cc1	i	1.08
O=C1CCCc2cc(S(=O)(=O)NCC3CCC(C(=O)NCc4cccnc4)CC3)ccc2N1 (stereo not given)	i	1.34
Cc1ccc2c(c1)C(Cc1oc3ccc(C)cc3c1C)C(=O)N2 (stereo not given)	i	0.88
O=C(NC1CCCCC1)N1CCN(CCn2cnc3cccnc32)CC1	i	0.02
COc1ccc(NC(=O)Cn2nc3ccc(SCc4ccc(Cl)cc4)nn3c2=O)cc1Cl	i	-0.22
O=C1CC(=O)Nc2cc(S(=O)(=O)Nc3ccc(F)cc3F)ccc2N1	i	-0.05
CCC(C(=O)N1CCC(C)CC1)N1C(=O)CCCc2ccccc21 (stereo not given)	i	-0.69
CCOC(=O)c1[nH]c(C)c(S(=O)(=O)NCC2CCCO2)c1C (stereo not given)	i	-0.61
Cc1ccc(S(=O)(=O)NC(=O)NN2CC3CCCC3C2)cc1 (stereo not given)	i	0.5&0
Cc1ccccc1Nc1c(-c2ccc(N(C)C)cc2)nc2cnc(Br)cn12	i	-1.15
Cc1c(NS(=O)(=O)c2ccc(N3CCCC3=O)cc2)c(-n2cnnc2)nn1C	i	0.05
CN(CCNC(=O)c1ccc(NC(=O)N2CCCCc3ccccc32)cc1)C1CCCCC1	i	-0.69
CCC1CCCCN1C(=O)COc1cc(C(F)(F)F)c2c(C)nn(C)c2n1 (stereo not given)	i	-0.6
CC(C)NC(=O)CCCCn1c(=O)c2ccccc2n(CC(=O)Nc2ccc(F)cc2)c1=O	i	0.08
COC(=O)c1c(NC(=O)c2ccc3c(c2)CC(c2ccccc2)OC3=O)sc(C)c1C (stereo not given)	i	0.59
Cc1ccc(C2CC(=O)Nc3c2c(C)nn3-c2ccc3nncn3n2)c(C)c1 (stereo not given)	i	-0.19
Cc1ccccc1-c1cc2n(C)c(C)c(CCC(=O)NCCCc3ccccc3)c(=O)n2n1	i	0.43
CCc1cc2c(Nc3ccc(F)cc3Cl)ncnc2s1	i	-1.59
COC(=O)c1ccsc1NC(=O)Cn1c2ncccc2c(=O)n1-c1ccccc1	i	-1.17
Cc1ccccc1Cn1nc2n(CCC(=O)NC(C)C)c(=O)c3ccccc3n2c1=O	i	0.93
COc1ccc(-n2nc(N3CCC(C(=O)NCc4ccccc4)CC3)ccc2=O)cc1	i	0.24
O=C(CCc1nc(CSc2nc3ccccc3o2)no1)Nc1ccc(F)c(Cl)c1	i	1.37
Cc1c(OCC(F)(F)F)ccnc1CS(=O)c1nc2ccccc2[nH]1 (stereo not given)	i	0.42&0.24&0.53&0.83
COc1ccc(NC(=O)N2CCN(S(=O)(=O)c3cc4c(cc3Cl)NC(=O)C(C)O4)CC2)cc1 (stereo not given)	i	0.09
O=C(c1cc(-c2ccccc2)n[nH]1)N1CCOCC1	i	-0.81
COc1ccc(CNC2=NCCNC23CCN(S(=O)(=O)c2cccs2)CC3)cc1	i	0
Cc1cc(C(=O)N2CCCC2c2c(C)noc2C)no1 (stereo not given)	i	0.31
New compounds follow:
SMILES	Anaer choline gr	Anaer choline gr early
Cc1nc2sccn2c(=O)c1NC(=O)Cc1ccc(Cl)cc1	i	-0.93
COc1ccc(-n2nc3c(N4CCC(C(=O)NCC5CCCO5)CC4)nnc(C)c3c2C)cc1 (stereo not given)	i	-0.47
CCN(CC)CCNC(=O)C1=C(C)C(=O)OC12CCN(S(=O)(=O)CC)CC2	i	0.75
CCCNC(C)C(=O)Nc1ccccc1C (stereo not given)	i	-0.17&0.46&0.25
CCn1nc(C)c2c1c(=O)n(CCc1ccccc1)c(=O)n2Cc1cc(C)ccc1C	i	-0.31
CCOC(=O)c1cccc(NS(=O)(=O)c2cc(C(=O)N3CCCC3)n(C)c2C)c1	i	-0.38
O=C(NCc1ccc2c(c1)OCO2)c1cc2c(=O)[nH]c3ccccc3c2s1	i	-0.36
Cc1cccc(-c2nnc(-c3nc(N4CCCC4)c4ccccc4n3)o2)c1	i	0.33
CCC(=O)Nc1ccc(S(=O)(=O)Nc2ccc(C3(C(=O)NCCC(C)C)CCC3)cc2)cc1	i	1.07
CCCNC(=O)C1CCN(c2cc(-c3ccc(F)cc3)ncn2)CC1	i	-0.87
O=C(Nc1ccc(F)c(Cl)c1)N1CCN(c2ccc(-c3noc(C4CCC4)n3)cc2)CC1	i	0.27
O=C(NCC1CCCO1)c1cccc(Nc2ncc(-c3ccc(F)cc3)cn2)c1 (stereo not given)	i	0.21
Cc1nc(CN2C(=O)COc3cc(S(=O)(=O)N4CCCC4)c(Cl)cc32)no1	i	1
COc1ccc(C2c3cccn3-c3c(c(C)nn3-c3ccccc3)CN2C(=O)Nc2cc(OC)ccc2OC)cc1 (stereo not given)	i	-0.48
CC(=O)Nc1c(C)cc(C)cc1-c1nnc(SCC(=O)Nc2cccc(Cl)c2)[nH]c1=O	i	-0.84
Cc1nc2cc(-c3noc(C4CC4)n3)ccc2n(C)c1=O	i	-0.81
Cc1ccccc1CNC(=O)C1(C)CCCN(S(=O)(=O)c2ccc(F)c(Cl)c2)C1 (stereo not given)	i	-1.07
COc1ccc(NC(=O)Cn2cccc2-c2nnc(-c3ccccc3)o2)cc1OC	i	-0.24
Cc1ccc(NC(=O)c2cnc3ccc(C)cn3c2=O)cc1	i	-0.17
CCOc1ccc(CN2CCc3nc(Nc4cccc(OC)c4)ncc3C2)cc1	i	0.36
O=C(Cn1c(=O)nc(-c2ccccc2)c2ccccc21)NC1CCCCC1	i	1.25
O=C(NC1CCCCCC1)C1CCN(c2cncnc2N2CCCCC2)CC1	i	-0.69
O=C(C1CCC1)N1CCCCC1CCN1CCCCC1 (stereo not given)	i	-0.04
O=S(=O)(NCCc1csc2nc(-c3cccc(F)c3)nn12)c1ccccc1	i	0.61
O=C(Nc1ccc(F)cc1F)C1Oc2ccccc2NC1=O (stereo not given)	i	0.68
Cc1cc(C)cc(NC(=O)Cn2ncc3c2-c2cc(C)ccc2OC3)c1	i	0.85
Cc1sc(-c2noc(C3CC3)n2)cc1NC(=O)C1CCC1	i	-0.32
CCC(=O)N1CCCC1c1nc2ccccc2n1CCCCOc1cccc(C)c1 (stereo not given)	i	0.79
Cc1cc2nc(CSc3ccccc3NC(=O)COc3ccccc3Cl)cc(=O)n2o1	i	-0.22

Pulled one by one from above:
SMILES	Anaer choline gr	Anaer choline gr early
Cc1cc(C)cc(NC(=O)Cn2ncc3c2-c2cc(C)ccc2OC3)c1	i	0.85
O=C(NC1CCCCCC1)C1CCN(c2cncnc2N2CCCCC2)CC1	i	-0.69
